Screening data as filed in PubChem BioAssay.
HPGD inh = inhibitors of human 15-hydroxyprostaglandin dehydrogenase (HPGD) | 150,000 compounds, 4.3% hits | AID 894 | purified HPGD, NADH fluorescence kinetic, PGE2 substrate | P15428 | Potency, µM, for inactives: at the highest dose activity change, negative = inhibition, usual class: inhibitors; active = well fitted inhibition curve with a large enough effect (not every such curve was filed as active); inconclusive = small, poorly fitted or top-dose-only effect, or another doubt; inactive = no such curve, though single readings can be large or run the other way;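 also: top concentration of the series not given in the record; plate controls included wells without enzyme; inactives centre near -10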
Target sequence (P15428 whole entry, looked up): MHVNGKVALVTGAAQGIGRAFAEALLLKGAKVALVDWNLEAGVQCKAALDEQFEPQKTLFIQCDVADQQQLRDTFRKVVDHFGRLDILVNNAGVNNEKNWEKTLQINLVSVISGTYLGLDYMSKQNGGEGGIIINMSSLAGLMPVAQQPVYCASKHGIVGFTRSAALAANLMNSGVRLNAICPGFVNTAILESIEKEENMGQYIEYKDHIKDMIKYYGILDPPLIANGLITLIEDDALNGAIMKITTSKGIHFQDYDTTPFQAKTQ
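NADH formation kinetics: reaction with 30 uM PGE2 and 1 mM NAD+ (final), 20 nM enzyme, Tris-HCl pH 8 with Tween 20, after 15 min compound preincubation at room temperature. Fluorescence change, last versus first of five reads.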
* hit, by the source's call; ? = inconclusive; & = joins results of further samples. % is scaled to controls: 0 for no effect and ±100 for the full control effect; potency is read from the fitted curve at half-maximal effect.

Compound | HPGD inh
COc1ccc(N2CCN(Cc3cc(=O)oc4cc(C)c(Cl)cc34)CC2)cc1 | -10%
Cc1ccccc1C(=O)NC(=S)NCCN1CCOCC1 | -9%
Cc1ccc(C)c(NC(=O)c2ccc3ccccc3n2)c1 | -1%
COc1ccc(OC)c(C2N(c3cc(C)on3)C(=O)C3CCCN32)c1 (stereo not given) | -10%
Fc1cc(NCc2ccccc2)nc(NCc2ccccc2)n1 | -18%
CN1CCc2nc(SCc3ccc(C(C)(C)C)cc3)c(C#N)cc2C1 | 28µM*
Cc1cc(C)n(C(=O)c2c([N+](=O)[O-])c(C)nn2C)n1 | -4%
Cn1c(SCC(=O)c2ccccc2)nnc1-c1ccco1 | -8%
O=C(OCC1CC(c2ccccc2)=NO1)c1ccc(Br)cc1 (stereo not given) | -20%
O=c1c2ccccc2c(-c2ccccc2)nn1-c1ccc(Cl)c(Cl)c1 | -12%
COc1cccc(C(=O)NC(=S)NCc2ccco2)c1 | -16%
Cc1ccc(-c2nnc(-c3ccc(NC(=O)c4cccs4)cc3)o2)cc1 | ?
CCc1nc(C)cn1S(=O)(=O)c1cc(C)c(OC)c(C)c1C | -9%
COc1ccc(C(=O)COC(=O)CN2C(=O)C3C4C=CC(C4)C3C2=O)cc1 (stereo not given) | -3%
COC(=O)c1sccc1-n1cccc1C(=O)NCc1ccccc1 | -8%
CCC(Oc1ccc2c(=O)c(-c3ccccc3OC)coc2c1)C(=O)OCc1ccccc1 (stereo not given) | -16%
CCc1ccc(Cn2nnc(C(=O)Nc3cccc(C)c3)c2N)cc1 | -3%
O=C(NNC(=S)Nc1ccc(Br)cc1Cl)c1ccco1 | -15%
O=C(Nc1nc2ccccc2[nH]1)c1ccccc1F | -2%
Cc1ccc(-c2csc3nnc(SCC(=O)NCc4ccco4)n23)cc1 | -11%
Cc1nc2ccccc2n1CC(=O)NCCN1CCCC1 | -2%
CCSc1nc(C(F)(F)F)cc(=O)n1-c1ccccc1 | -16%
NC(=O)CC[C@H](N)C(=O)O | 9%&-19%
Cc1nc2ncnn2c(C)c1CCC(=O)NCc1ccco1 | -6%

Grouped by structure, the entries above containing bromine
Compound | HPGD inh
O=C(OCC1CC(c2ccccc2)=NO1)c1ccc(Br)cc1 (stereo not given) | -20%
O=C(NNC(=S)Nc1ccc(Br)cc1Cl)c1ccco1 | -15%

(list continues)
Compound | HPGD inh
O=c1c2c3c(sc2nc2sc(CN4CCOCC4)cn12)CCCC3 | -19%
CCOC(=O)NC(c1ccccc1)C1CCCCC1=O (stereo not given) | -9%
C/C(=N\NC(=O)c1cccc(Cl)c1)c1cccc(NC(=O)c2ccco2)c1 | -17%
CCOC(=O)c1oc2c(CN3CCN(C)CC3)c(O)ccc2c(=O)c1-c1ccccc1OC | -1%
CC1(C)CC(=O)C2=C(C1)OC(N)=C(C#N)C2c1cn(-c2ccccc2)nc1-c1ccccc1 (stereo not given) | -19%
COc1ccc2[nH]cc(C(O)CN3CCC(C(N)=O)CC3)c2c1 (stereo not given) | 0%
Nc1cccc(C2=Nc3cccc4cccc(c34)N2)c1 | -11%
CCN(CC)c1nc(C)nc2c1cnn2CCc1ccccc1 | -8%
CCCCC/C=C\C/C=C\C[C@H](O)/C=C/C=C\CCCC(=O)O | -2%
Cc1cc(C)n2cc(CSc3nnnn3-c3ccccc3)nc2n1 | ?
Cc1nc2ccc(NC(=S)NC3CC3)cc2nc1C | -3%
C=C(C)C(=O)c1ccc2c(c1)OCO2 | -11%
N#Cc1ccc(/C=N/NC(=O)c2ccccc2F)cc1 | -8%
COc1ccc(CNC(=O)Nc2ccc(C)cc2)cc1 | -14%
Cc1ccc2[nH]c3c(N4CCc5ccccc5C4)ncnc3c2c1 | -25%
Cn1c(SCC(=O)Nc2cc(=O)n(C)c(=O)n2C)nnc1C12CC3CC(CC(C3)C1)C2 | -11%
S=C(NCC1CCCO1)Nc1ccc(Cl)cc1 (stereo not given) | -26%
CCCCCCCCC(=O)N/N=C(\C)c1ccco1 | -7%
C=C(C(C)=O)C(O)/C=C/c1ccco1 (stereo not given) | -7%
COc1ccccc1N/C(=N/S(=O)(=O)c1ccc(C)cc1)c1ccccc1 | -13%
COc1cc(OC)cc(C(C(=O)NCc2ccccc2)N(Cc2ccco2)C(=O)c2ccno2)c1 (stereo not given) | -6%
N#CCC1c2ccccc2CCN1C(=O)Nc1ccc(Cl)cc1 (stereo not given) | -3%
COc1ccccc1CNC(=O)C1=C(C)C(=O)OC12CCC(C)CC2 (stereo not given) | -5%
O=C(CN1C(=O)C2C3C=CC(C3)C2C1=O)NCc1ccco1 (stereo not given) | -7%
COc1ccccc1C1C(C(=O)c2cc3ccccc3o2)=C(O)C(=O)N1CCN1CCOCC1 (stereo not given) | -11%
O=C1c2ccccc2NC(c2ccc(-c3cccc([N+](=O)[O-])c3)o2)N1O (stereo not given) | 18µM*
O=C(Nc1ccc(F)cc1F)c1cccn1-c1ncc(C(F)(F)F)cc1Cl | 1%
CSCC[C@H](NC(=O)C1CCN(S(=O)(=O)c2ccc(C)cc2)CC1)C(=O)NC1CCS(=O)(=O)C1 (stereo not given in full) | -8%
C/C(=N\[N+](C)(C)C)c1ccc(C)c(C)c1 | -1%
CCSc1nnc(NC(=O)C(Cc2ccccc2)n2cccc2)s1 (stereo not given) | -5%
N#Cc1c2n(c(=S)n(-c3ccccn3)c1=O)CCCCC2 | -4%
Cc1cn(C(=O)CN2C(=O)c3ccccc3C2=O)c(C)n1 | -4%
O=C(Nc1cccc(F)c1)N1CCC2(CC1)CCN(C(=O)c1csnn1)CC2 | -1%
N#Cc1nc(COc2ccccc2Cl)oc1NCc1cccnc1 | ?
C(=N\n1cnnc1)/c1ccc(OCc2cccc3ccccc23)cc1 | -20%
Cc1cc(-c2cccs2)c2c(n1)sc1c(=O)[nH]c(=O)[nH]c12 | ?
CC1CCc2nn(CC(=O)NCCCN3CCCC3=O)cc2C1 (stereo not given) | -12%
Cc1cc(C)nc(N/N=C/c2ccccc2)n1 | 14µM*
Cc1c(Br)cc(C(=O)O)c(C)c1C | -15%
COc1cc(OC)c2c(c1)OC(=O)CC2c1ccc2c(c1)OCO2 (stereo not given) | ?
Cn1cc(C(=O)OCC2CCN(CCNS(C)(=O)=O)CC2)c2ccccc21 | -9%&-8%
C/C(=N\NC(=O)c1nn(C)c(C)c1Br)c1cccc(NC(=O)c2ccoc2C)c1 | -15%
COCCNc1cc(C)c(C#N)c2nc3ccccc3n12 | ?
CCOC(=O)c1cc(NC(=O)N(CC)CC)c(C)nc1C | ?
Cn1c(CCNC(=O)c2ccco2)nc2cc(NC(=O)NC3CCCCC3)ccc21 | -23%
N#CCCn1c(=S)[nH]c2ccccc21 | 14µM*
COCCOC(=O)c1c(C)oc2ccc(NS(=O)(=O)c3ccccc3)cc12 | -15%
Cc1ccccc1Nc1nnc(SCC(=O)NCc2ccco2)s1 | -11%
Cc1nn(Cc2ccc(F)cc2)c(C)c1NC(=O)c1cnn2c1NC(c1cccs1)CC2C(F)(F)F (stereo not given) | -13%
COc1ccc(-n2c(=O)c(-c3cc(F)cc(F)c3)nc3cnc(N4CCNCC4)nc32)cc1 | -11%
CCN1C(=O)C(CC(=O)Nc2ccc(OC)cc2)N(Cc2ccc3c(c2)OCO3)C1=S (stereo not given) | -15%
CCOC(=O)c1nc(C)n(-c2ccc(Cl)cc2)n1 | -1%
CCOc1ccc(N(CC(=O)Nc2cccc(Cl)c2)S(=O)(=O)c2c(C)noc2C)cc1 | -13%
CC[C@@H]1Cn2c(c3nc(-c4ccccc4)nc-3n(C)c2=O)N1 | ?
C#CCCOC(=O)N1C2=NC(C(=O)OC)=C(C(=O)OC)[C@@H]3N(CC#CC)c4ccccc4[C@]23C[C@H]1C(=O)OC | -4%
CCc1nc(-c2ccccc2O)n(-c2ccccc2)n1 | -10%
CN(C)CCCCN1CCc2c(n(C)c3ccccc23)C1=O | -8%
CCOC(=O)CNS(=O)(=O)c1ccc(S(=O)(=O)N2CCCC2)cc1 | -2%
COc1ccc(-c2csc(=Nc3ccccc3)n2CCO)cc1 | -16%
CCOc1cc(CNc2cccc3ccccc23)cc(Br)c1OCC(=O)NC(C)(C)C | -19%

(listing goes on)
Compound | HPGD inh
O=C(CS(=O)(=O)c1cn(Cc2ccc(Cl)cc2)c2ccccc12)N1CCCC1 | -16%
O=C(CN1CCN(c2ccccc2)CC1)N1CCc2[nH]c3ccccc3c2C1 | -4%
CCN(CC)C(=O)CSc1nnc(-c2cnccn2)n1-c1ccccc1 | -16%
CC(C)C(=O)Nc1cccc(NC(=O)c2ccc([N+](=O)[O-])cc2Cl)c1 | -28%
CN(c1cccc(NC(=O)Nc2ccc(Cl)cc2)c1)S(C)(=O)=O | -3%
CN(C)/C=N/C(=S)Nc1ccc(Br)cc1F | -30%
CCOc1ccccc1NC(=O)C1CCN(S(=O)(=O)c2ccc(OC)c(OC)c2)CC1 | -29%
COc1cc(/C=N/N=C(/C(=O)c2ccccc2)c2ccccc2)cc(OC)c1O | -9%
Cc1ccc(S(=O)(=O)NCCN2CCOCC2)cc1 | -8%
O=C(c1cc2ccccc2c(=O)o1)N1CCc2ccccc2C1 | 25µM*
COc1cc(C)nc(Oc2ccc(/C=N/O)cc2)n1 | -6%
O=C(O)c1ccc2c(c1)C(=O)N(c1ccc(Cl)cn1)C2=O | -4%

Gathered by group, those above with fluorine (nine)
Compound | HPGD inh
Fc1cc(NCc2ccccc2)nc(NCc2ccccc2)n1 | -18%
O=C(Nc1nc2ccccc2[nH]1)c1ccccc1F | -2%
CCSc1nc(C(F)(F)F)cc(=O)n1-c1ccccc1 | -16%
N#Cc1ccc(/C=N/NC(=O)c2ccccc2F)cc1 | -8%
O=C(Nc1ccc(F)cc1F)c1cccn1-c1ncc(C(F)(F)F)cc1Cl | 1%
O=C(Nc1cccc(F)c1)N1CCC2(CC1)CCN(C(=O)c1csnn1)CC2 | -1%
Cc1nn(Cc2ccc(F)cc2)c(C)c1NC(=O)c1cnn2c1NC(c1cccs1)CC2C(F)(F)F (stereo not given) | -13%
COc1ccc(-n2c(=O)c(-c3cc(F)cc(F)c3)nc3cnc(N4CCNCC4)nc32)cc1 | -11%
CN(C)/C=N/C(=S)Nc1ccc(Br)cc1F | -30%

(list continues)
Compound | HPGD inh
CCSC1(SCC)N=C(N)C2(C#N)C(c3ccc(OC)c(OC)c3OC)C12C#N (stereo not given) | 8.9µM*
COC(=O)c1[nH]c2ccc(F)cc2c1NS(=O)(=O)c1ccc(F)c(C)c1 | -16%
NC[C@@H]1O[C@H](c2ccccc2)Cc2c1ccc(O)c2O | -11%
COc1cc(CC(=O)OCC(=O)Nc2cc([N+](=O)[O-])ccc2F)cc(OC)c1OC | -13%
CC(C)C(=O)NNS(=O)(=O)c1ccccc1[N+](=O)[O-] | -1%
CN(C)C=NCCn1c(N2CCOCC2)nc2c1c(=O)n(C)c(=O)n2C | -6%
CCn1c(CSCc2ccc(C)cc2)nnc1SCC(=O)N1CCN(c2ccccc2)CC1 | -6%
CCCn1c(-c2cccnc2Cl)nc2cc(Cl)c(Cl)cc21 | -1%
NC(=O)C1CCN(C(=O)c2ccc(-c3ccccc3)cc2)CC1 | -4%
Cc1cccc(N2CCN(C(=O)COc3cc(=O)n(C)c4ccccc34)CC2)c1C | -3%
COc1ccc2nc3c(cc2c1)Cc1ccccc1-3 | ?
Cc1ccc(NC(=O)CCNC(=O)c2ccc(Cl)cc2)cc1F | -20%
CCc1nc(NCc2cccnc2)c2oc3ccccc3c2n1 | -23%
CC12CCC(C(=O)Nc3ccccc3)(C(Br)C1=O)C2(C)C (stereo not given) | -1%
COC(=O)/C(=C1/Oc2ccc(C(C)(C)C)cc2S1)C(F)(F)F | -5%
O=C(CSc1nc2c(c(=O)n1-c1ccc(Cl)cc1)SCC2)N1CCOCC1 | -15%
CCC(C)(C)NC(=O)c1cc(OC)c(OC)cc1[N+](=O)[O-] | -12%
CC1(C)CC(=O)C=C(Nc2ccc(F)cc2)C1 | -17%
COc1ccc(C2NC(C(=O)O)CS2)cc1COCC(F)(F)F (stereo not given) | -1%
CC(=O)[C@H]1CC[C@@H]2[C@]1(C)CC=C1[C@@]23C=C[C@]2(C[C@H](O)CC[C@@]12C)[C@H](C(=O)O)[C@@H]3C(=O)O | -6%
O=C(CN1C(=O)/C(=C\c2ccccc2F)SC1=S)Nc1nc2ccccc2s1 | -21%
C/C(=N/Nc1nc(C)cc(=O)[nH]1)C(=O)O | 1%
CN1CCN(C(=O)C2CC(=O)N(c3ccc(F)c(Cl)c3)C2)CC1 (stereo not given) | -7%
CCCCCCCCOC(=O)C1=C(C)Nc2nnnn2C1c1cccs1 (stereo not given) | ?
COc1ccccc1C(=O)Nc1ccc2c(c1)nc1n2CCSC1 | -10%
Cc1ccc(NC(=O)NC2CCCCC2)c(C)c1 | -5%
O=C1c2ccccc2S(=O)(=O)N1Cc1cccc(S(=O)(=O)N2CCOCC2)c1 | -15%
O=C(CSc1ccc2nnc(-c3ccncc3)n2n1)NCc1ccco1 | ?
CS(=O)(=O)N(CCc1ccccc1)CC(=O)NCC1CCCO1 (stereo not given) | -6%
CCC(C)NC(=O)c1ccc(CS(=O)(=O)c2ccc(OC)cc2)o1 (stereo not given) | -3%

Some of the compounds tested (hit frequency here may not be typical).
